# High-throughput results: PubChem BioAssay, several laboratories
# FGF22 binding: binders of recombinant human FGF22 by thermal shift | AID 651658 | calls only at 9.99 µM | hit rate 1.5% among 340,000 | SYPRO orange fluorescence; percent of sucrose octasulfate shift, DMSO zero | Q9HCT0;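 active means melting point raised past a set limit in the mean and every replicate; inconclusive means no clear call; three in four hits are not shown here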
# Target sequence (Q9HCT0 whole entry, looked up): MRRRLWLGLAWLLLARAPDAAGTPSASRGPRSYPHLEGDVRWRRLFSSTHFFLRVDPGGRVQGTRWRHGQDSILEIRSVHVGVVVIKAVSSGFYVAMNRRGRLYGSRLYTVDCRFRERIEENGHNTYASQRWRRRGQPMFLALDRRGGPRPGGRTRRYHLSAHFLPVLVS
# Vif A3G: HIV-1 Vif–A3G interaction blockers – biochemical, TR-FRET, GST-Vif 1-94, biotin-A3G peptide, dose response retest, primary screen (AID 1117319). TR-FRET GST-Vif / biotin-A3G peptide binding; higher % means a stronger effect; test concentration not given here; strong numbers were not always called active. inhibition, %, or IC50 in µM where a hit was titrated. hit rate 0.57% among 260,000;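 active means above the screen mean plus three standard deviations and confirmed in dose response; inconclusive means results disagree or hit not tested in dose response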;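 further: Vif residues 1-94 fused to GST binding biotinylated APOBEC3G peptide 110-148; 0% = full assay without inhibitor and 100% = GST in place of GST-Vif; retest series ran down from 100 µM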
# AF4-AF9 inh: inhibitors of human MLL-AF4/AF9 interaction | AlphaScreen, biotin-AF4 peptide binding to FLAG-AF9 | inhibition, % at 10 µM | hit rate 0.47% among 350,000 | AID 651704;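 active means every replicate reaching a set inhibition limit, whatever the replicate mean, cut at about 25% in these data; inconclusive means mean inhibition reaches that limit but some replicates miss it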;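 further: 0% = plate neutral control median and 100% = total signal loss; the record names both 10 and 1 µM as test concentration; the first replicate is given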
# HNF4A DNA FP: change in binding of human HNF4 alpha to DNA; HNF4a-FITC DNA binding, fluorescence polarization, 1 h; activity change, % at 10 µM; hit rate 0.3% among 360,000; in the data active means activity change above about 30%, passing the limit was not always enough;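 further: controls were the assay level and a saturating level of protein; the project sought stronger binding though the title names inhibitors; some compounds called inactive have numbers as strong as hits; positive values seem to mean higher polarization but the record does not say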
# Target sequence (P41235 whole entry, looked up): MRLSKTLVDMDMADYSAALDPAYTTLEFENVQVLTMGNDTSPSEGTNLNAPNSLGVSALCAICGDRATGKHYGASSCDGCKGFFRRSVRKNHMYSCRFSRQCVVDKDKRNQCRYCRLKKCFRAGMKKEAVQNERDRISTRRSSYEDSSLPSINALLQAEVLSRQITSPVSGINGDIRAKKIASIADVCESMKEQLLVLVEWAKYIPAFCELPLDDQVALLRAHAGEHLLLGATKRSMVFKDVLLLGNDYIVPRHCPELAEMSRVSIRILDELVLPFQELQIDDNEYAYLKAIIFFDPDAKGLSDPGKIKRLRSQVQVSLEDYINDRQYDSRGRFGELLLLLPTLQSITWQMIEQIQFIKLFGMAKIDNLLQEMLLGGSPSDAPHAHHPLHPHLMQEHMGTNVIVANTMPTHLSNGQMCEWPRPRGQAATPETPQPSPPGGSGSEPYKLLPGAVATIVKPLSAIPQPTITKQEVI
# E coli growth: inhibitors of Escherichia coli growth | OD600, 23 h; stronger effect = lower value | OD600 absorbance (concentration not given with the values) | hit rate 0.21% among 330,000 | AID 1053175;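 active means OD600 absorbance below the run mean of sample wells minus 3.6 SD, in any replicate, cut at about 0.56 in these data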;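 further: stock transfer was 300 nL into about 60 µL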
# RanGTP-Imp inh: inhibitors of RanGTP-importin-beta interaction, primary screen, biochemical, FRET, CFP-Ran, YFP-importin-beta, homogeneous; cell-free CFP-Ran/YFP-importin-beta FRET ratio; inhibition, % (test concentration not listed); hit rate 1.1% among 300,000;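 active means most replicates above 15%; inconclusive means exactly half above 15%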;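 further: 0% = DMSO wells and 100% = Ran loaded with GDP instead of GTP; wells of about 40 µL received 100 nL stock; the first replicate is given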
# UCH37 inh: human UCH37 deubiquitinating enzyme inhibition. Q9Y5K5. purified proteasome/UCH37, Ub-AMC cleavage fluorescence. inhibition, % (test concentration not listed). hit rate 0.33% among 330,000;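 active means mean of two replicates above 20%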;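 further: 0% = compound-free wells with enzyme and 100% = wells lacking proteasome; stock transfer was 100 nL into about 20 µL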
# Target sequence (Q9Y5K5 whole entry, looked up): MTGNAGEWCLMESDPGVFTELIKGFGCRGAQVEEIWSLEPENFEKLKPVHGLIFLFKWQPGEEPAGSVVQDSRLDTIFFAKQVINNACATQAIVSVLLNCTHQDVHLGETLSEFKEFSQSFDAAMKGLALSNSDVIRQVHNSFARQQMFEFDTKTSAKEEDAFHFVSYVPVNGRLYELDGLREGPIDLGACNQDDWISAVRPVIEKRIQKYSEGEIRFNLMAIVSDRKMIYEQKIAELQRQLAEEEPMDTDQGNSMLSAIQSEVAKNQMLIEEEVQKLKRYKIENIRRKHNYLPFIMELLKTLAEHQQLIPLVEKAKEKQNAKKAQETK
#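 System: Proteasome-associated human UCH37 deubiquitinase; Input: 0.15 nM proteasome in added enzyme buffer; Also added: Ub-AMC substrate from 1 µM stock; Incubation: 30 min compound-proteasome preincubation then 25 min substrate reaction, room temperature; Detection: fluorescence, ex 355 nm, em 460 nm; Read-out: % inhibition of Ub-AMC cleavage fluorescence; Benchmarks: no-proteasome and no-compound wells.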
# Starred values were filed as active, the others as inactive; i = inactive; ? = inconclusive; · = no result given. A portion of the library; rates above refer to the full screens.
no.	structure	FGF22 binding	Vif A3G	AF4-AF9 inh	HNF4A DNA FP	E coli growth	RanGTP-Imp inh	UCH37 inh
1	CC(=O)C1(c2ccccc2)CCNCC1	·	-4%	·	1.7	0.68	-4.4	0.2
2	Cc1cccnc1-n1c(CN2C(=O)c3ccccc3C2=O)nc2ccccc2c1=O	·	-3%	·	-4.0	0.7	1.4	-0.3
3	O=c1[nH]c(=S)n(-c2ccccc2F)c(O)c1C=NCc1ccco1	·	?	·	-3.3	0.66	5.7	3.9
4	O=C1NC(c2ccccc2Br)=N/C1=C\c1ccco1	i	?	0.7	0.1	0.65	-0.6	7.7
5	OCC1OC(n2cnc3cc(Cl)c(Cl)cc32)C(O)C1O (stereo unspecified)	i	·	11	0.9	0.65	·	·
6	O=C(CCN1CC1)OCCOC(=O)CCN1CC1	i	-5%	?	-1.9	0.67	·	2.0
7	CN1CCN(C(=O)Cc2ccccc2)CC1	i	5%	-2.1	5.4	0.67	3.8	0.3
8	CCCNC(=O)N1[C@H]2CC[C@@H]1C(C(=O)OC)=C(c1ccc(Cl)c(C(F)(F)F)c1)C2	i	·	-1.4	2.8	·	·	0.2

# Down the list, as entered above:
# Entries 2–7 in FGF22 binding, in turn: ·, ·, i, i, i, i
# Entries 2–7 in HNF4A DNA FP, in turn: -4.0, -3.3, 0.1, 0.9, -1.9, 5.4
# Entries 2–7 in Vif A3G, in turn: -3%, ?, ?, ·, -5%, 5%

# Following part.
no.	structure	FGF22 binding	Vif A3G	AF4-AF9 inh	HNF4A DNA FP	E coli growth	RanGTP-Imp inh	UCH37 inh
9	CN1C(=O)N(C)C(=O)C2(Cc3cc([N+](=O)[O-])ccc3N3CCN(C(=O)c4ccccc4)CC32)C1=O (stereo unspecified)	i	0%	-1.8	4.0	0.69	6.9	9.0
10	Cc1cnc[nH]1	i	·	·	2.8	0.65	·	2.0
11	CC(=O)c1c(O)n(-c2cccc(Cl)c2)c(=O)[nH]c1=O (tested in a mixture with another compound)	i	?	·	13	0.62	3.4	-1.9
12	CCOc1ccccc1N1C(=O)NC(=O)/C(=C/c2ccc3c4c(cccc24)CC3)C1=O	·	10%	·	-1.6	0.7	-2.3	-9.5
13	CC(Cc1ccccc1)NC(=O)C(c1ccc(N)cc1)c1ccc(N)cc1 (stereo unspecified)	i	-6%	0.7	-2.2	0.63	-4.7	3.1
14	ClCCNc1nc2ccc(Cl)cc2[nH]1	·	0%	·	1.5	0.69	7.9	2.8
15	COc1ccc(CC(C)NC2CCCCCC2)cc1 (stereo unspecified)	i	-4%	-0.5	0.8	0.71	6.6	1.6
16	Cc1ccc(C2=NCC(=O)Nc3ccc(Br)cc32)cc1	i	-1%	4.1	5.0	0.62	-2.8	-0.5
17	Fc1ccc(C[n+]2c(-c3ccccc3)cc(-c3ccccc3)cc2-c2ccccc2)cc1	i	·	8.9	·	·	-2.7	-3.5
18	CCCCn1c(O)c(C(C)=NCCN2CCCCC2)c(=O)[nH]c1=O	·	4%	·	1.5	0.66	·	1.0
19	O=C(COc1ccc(Cl)cc1Cl)N1CCN(C/C=C/c2ccccc2)CC1	·	-2%	·	-2.5	0.59	4.0	0.1
20	O=C1NC(=O)C2(C(=O)N1)C(c1ccc(F)cc1)NC(=S)NC2c1ccc(F)cc1 (stereo unspecified)	·	3%	·	-3.4	0.71	1.0	5.8
21	COc1cccc(C(=O)C2CCCN(Cc3ccc4nsnc4c3)C2)c1 (stereo unspecified)	i	·	5.2	0.1	0.67	-2.0	4.5
22	CCCCC1(CN2CCCC2=O)C(=O)NC(=O)NC1=O	·	16%	·	-1.8	0.79	0.3	1.7
23	Cc1ccc(OCCOc2cccc(C=C3C(=O)NC(=O)NC3=O)c2)cc1	i	10%	-4.5	-0.7	·	1.9	·
24	CC(=O)N(C1=NCCCS1)c1ccc(Cl)cc1	i	-3%	-0.1	-6.1	·	1.1	·
25	COc1cccc(CN2CCNCC2)c1OC	i	·	2.0	3.8	0.68	1.9	1.3
26	CCOCCN1CCC(OC(C)=O)C(C)C1 (stereo unspecified)	·	-4%	·	0.6	0.68	-1.3	2.6
27	CCOC(=O)c1c(/N=C/C2C(=O)NC(=S)NC2=O)sc2c1CCC2	·	?	·	94	·	?	·
28	O=C(Cc1ccccc1)OCC(=O)c1ccccc1	i	·	-2.6	-3.3	0.71	3.5	1.0
29	CCC[N+]12CCC(CC1)C(=C(c1ccccc1)c1ccccc1)C2	·	0%	·	-0.1	0.7	-0.7	-0.7
30	CC1CN1P(=O)(Oc1ccccc1)N1CC1C (stereo unspecified)	i	-8%	-4.1	-1.4	0.67	·	-2.3
31	Cc1ccc(/C=C2\C(=O)NC(=O)N(CCc3ccc(F)cc3)C2=O)o1	i	·	-2.1	-0.1	·	-2.4	6.3
32	O=C(N/N=C/c1c(O)n(Cc2ccccc2)c(=O)[nH]c1=O)c1ccncc1	i	9%	1.0	21	0.7	2.4	-8.4
33	COc1ccc2[nH]cc(C(=O)CN(C)C)c2c1	i	·	0.9	1.1	0.7	2.0	2.3
34	C/C(=N\NC(=O)c1ccncc1)c1c(O)n(-c2ccccc2)c(=O)[nH]c1=O	i	19%	-0.3	-1.9	0.66	0.3	15
35	Cc1ccc(/C=C2/C(=O)NC(=O)N(Cc3ccc(F)cc3)C2=O)o1	i	·	-7.0	·	0.67	-1.6	2.0
36	O=C(N/N=C/c1c(O)n(CCc2ccc(F)cc2)c(=O)[nH]c1=O)c1ccccc1	i	12%	-0.6	3.4	0.68	1.8	-148
37	CCn1cc(C(=O)N2CCCCC2)c2ccccc21	·	-12%	-3.6	-4.1	0.69	1.0	0.8
38	Cc1cc(OCC(=O)NCC2CCC(C(=O)O)CC2)c2c3c(c(=O)oc2c1)CCC3 (stereo unspecified)	i	·	0.5	6.9	0.73	1.2	-144
39	O=C(c1cc2nc(-c3ccccc3)cc(-c3ccccc3)n2n1)N1CCC2(CC1)OCCO2	·	-9%	·	-1.5	0.68	9.7	-73
40	C#C[C@]1(O)CCC2C3CC=C4C[C@H](O)CC[C@]4(C)C3CC[C@@]21C (stereo partly specified)	i	-3%	0.8	3.5	0.66	·	0.9
41	Clc1ccc(C(Cl)(Cl)Cl)c(Cl)c1	i	·	·	-2.7	0.68	·	2.9
42	CCCCn1c(O)c(C(CC)=Nc2ccc(OCC)cc2)c(=O)[nH]c1=O	·	6%	·	2.8	0.64	-1.0	0.4
43	O=C1NC(=O)C2(CCCC2)C(=O)N1	i	-3%	-1.9	-0.5	0.7	·	0.1
44	Cc1cccc2c1N(N=O)CCC2	·	-1%	·	0.0	0.7	-0.9	5.7
45	C#C[C@]1(O)[C@H](O)CC2C3CC[C@H]4C[C@@H](O)CC[C@]4(C)C3CC[C@@]21C (stereo partly specified)	i	·	-1.9	23	·	·	·
46	COc1ccc(C(c2c(O)c3ccccc3oc2=O)c2c(C)n(C)n(-c3ccccc3)c2=O)cc1 (stereo unspecified)	·	1%	·	2.8	0.67	1.5	4.4
47	COc1ccc(C(c2ccc(OC)cc2)C(Cl)(Cl)Cl)cc1	i	·	·	3.3	0.66	·	-0.7
48	Nc1nonc1C(=O)N/N=C/c1ccc([N+](=O)[O-])o1	·	30%	·	-3.9	·	6.3	·
49	O=[N+]([O-])c1ccc2nc(N3CCNCC3)ccc2c1	·	·	·	·	0.66	3.9	0.7
50	COc1ccc(/C=N/N=C(/N)N[N+](=O)[O-])c(OC)c1	·	4%	·	-2.5	·	0.4	·
51	O=c1[nH]c(=S)[nH]c(O)c1N=Nc1cc(S(=O)(=O)Nc2ccc(Cl)cc2)ccc1Cl	i	-5%	-34	-4.0	0.69	·	8.6
52	CC(=O)OC1N=C(c2ccccc2Cl)c2cc(Br)ccc2N(C)C1=O (stereo unspecified)	i	-1%	1.2	-0.1	0.6	-2.0	2.9
53	COc1ccc(C(=O)C2CCCN(Cc3cccc(C)n3)C2)c(OC)c1 (stereo unspecified)	i	?	5.7	0.5	0.68	2.9	4.7
54	Nc1nc(SCCC(F)=C(F)F)n[nH]1	i	-3%	-3.0	1.1	0.65	4.3	0.0
55	CCCCCn1c(=O)c(C(=O)NCCc2ccccc2)c(O)c2ccccc21	i	·	-5.6	-1.8	0.67	0.9	0.1
56	COc1cccc(-c2sc3ccccc3c2-c2ccc(OCCN3CCOCC3)cc2)c1	i	·	10	6.2	·	·	·
57	CCOC(=O)[C@@]1(C#N)C(c2ccc(Cl)c(Cl)c2)[C@H](C(N)=O)N2C=C(C(C)=O)C=C[C@H]21 (stereo partly specified)	·	11%	·	9.6	0.71	·	·
58	COCCOC(=O)C1=C(N)Oc2c(c(=O)oc3ccccc23)C1c1ccncc1 (stereo unspecified)	·	-1%	·	3.3	0.65	0.6	5.7
59	CCN(c1ccc(C(O)(C(=O)OC)C(F)(F)F)cc1)S(=O)(=O)c1ccccc1 (stereo unspecified)	·	-3%	·	-1.0	0.74	?	2.5
60	CCCCCP(=O)(O)c1ccccc1	·	-1%	·	1.5	0.7	3.1	0.8
61	O=C(Cn1nc(-c2ccccc2)ccc1=O)N1CCC2(CC1)OCCO2	i	0%	-3.0	-1.5	0.72	-1.7	2.3
62	COc1ccc(OC)c(CN2CCCC(C(=O)c3sccc3C)C2)c1 (stereo unspecified)	i	-6%	·	1.9	0.62	3.5	3.6
63	O=[N+]([O-])c1ccc(N2CCNCC2)cc1NC1CC1	·	-3%	·	·	0.64	9.0	9.1
64	Nc1ccccc1C(=O)OCCOc1ccccc1	·	25%	·	-0.7	0.75	·	-104

# Further compounds.
no.	structure	FGF22 binding	Vif A3G	AF4-AF9 inh	HNF4A DNA FP	E coli growth	RanGTP-Imp inh	UCH37 inh
65	C[C@]12CCC3C(CC[C@@H]4[C@H]5O[C@H]5CC[C@]34C)C1CC[C@@H]2O (stereo partly specified)	i	-6%	0.2	-2.6	0.71	·	3.4
66	CC(C)n1nnnc1CN1CCN(C)CC1	·	-3%	·	-0.4	0.74	5.9	5.3
67	COP(=O)(CC(=O)O)c1ccccc1 (stereo unspecified)	·	-4%	·	1.8	0.65	1.8	-1.1
68	Cc1cccc(C)c1NC1=NCCCS1	i	1%	-0.2	0.5	0.69	-2.1	-2.1
69	Cc1cc(OC(=O)c2ccco2)c2c3c(c(=O)oc2c1)CCCC3	·	18%	·	-0.3	0.76	7.0	5.7
70	Clc1cccc(CNCCc2ccc3c(c2)OCO3)c1	i	-7%	-0.7	-0.2	0.68	-0.3	6.3
71	Cc1cc(Br)c(NC(=O)COn2nnc3ccc(S(C)(=O)=O)cc32)c(Br)c1	i	·	0.0	2.8	0.65	-0.2	-0.4
72	O=C1NCCN2CCCC12 (stereo unspecified)	·	-4%	-3.7	3.5	0.71	·	1.5
73	CCC(C)N1C(=O)/C(=C\c2cc3c4c(c2)CCCN4CCC3)C(=O)NC1=S (stereo unspecified)	i	?	-5.9	-6.8	0.68	-2.1	1.7
74	Cn1c(=O)cc(OCC(=O)N2CCN(C3CCCCC3)CC2)c2ccccc21	i	-5%	2.1	1.8	0.71	-2.7	-0.6
75	Clc1ccc2nc3c(c(-c4ccccc4)c2c1)CNCC3	i	8%	3.5	-1.4	0.7	2.4	6.8
76	O=c1[nH]c(=S)n(CCC2=CCCCC2)c(O)c1/C=N/N1CCOCC1	i	6%	3.9	4.4	0.66	1.7	4.6
77	CCN(CC)P(=O)(c1nccn1C)N(CC)CC	·	·	-0.3	-1.1	0.62	·	1.6
78	COc1ccc2c(c1)C(c1ccc(N(CCCl)CCCl)cc1)=NCC2	i	3%	6.1	-0.6	0.66	·	3.2

# An excerpt from above with just E coli growth, Vif A3G and UCH37 inh:
entry | Structure | E coli growth | Vif A3G | UCH37 inh
33 | COc1ccc2[nH]cc(C(=O)CN(C)C)c2c1 | 0.7 | · | 2.3
10 | Cc1cnc[nH]1 | 0.65 | · | 2.0
